TRPV1 PAM: human TRPV1 potentiation | Q8NER1 | TRPV1-expressing cells, Fluo-8 calcium influx, capsaicin EC20 potentiation; host cell line not named in the record; control for the full effect not named in the record | potentiation, % at 8.33 µM | 320,000 compounds, 0.02% hits | AID 540277; active means potentiation above 80%; inconclusive means 30% to 80%; inactive means below 30%; also: 0% is about no effect
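TRPV1-expressing cells were cultured overnight at 35.5C and loaded with Fluo-8 calcium dye for 40 to 90 min at room temperature. After a 10 s baseline, compound was added and calcium influx was read kinetically for 3 min (ex 480/em 520 nm).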
CtBP-E1A inh: inhibitors of CtBP/E1A interaction | 340,000 compounds, 0.49% hits | AlphaScreen GST-E1A/His-CtBP binding, 1536-well; active compounds read low; control for the full effect not named in the record | activity change, % (concentration not given with the values) | AID 651724; in the data active means activity change below about -65%; inconclusive means about -30% to -65%; inactive means above about -30%; also: % is scaled to controls: 0 for no effect and ±100 for the full control effect
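Protein mix (5X: 125 nM each GST-E1A, His-CtBP) was incubated with pinned compound 2 h at 37 deg C in dark, in 50 mM Tris pH 8.0 buffer with 300 mM NaCl. Glutathione donor and nickel acceptor beads followed; AlphaScreen signal read after 1 h.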
Six1-Eya2 inh: Six1/Eya2 interaction inhibition. activity change, % (concentration not given with the values). AlphaScreen GST-Six1/His-Eya2 binding, biochemical; active compounds read low; control for the full effect not named in the record. 360,000 compounds, 0.56% hits. Q15475+O00167; in the data active = activity change below about -65%; inconclusive = about -30% to -65%; inactive = above about -30%; also: % is scaled to controls: 0 for no effect and ±100 for the full control effect
Target sequence (O00167 whole entry, looked up): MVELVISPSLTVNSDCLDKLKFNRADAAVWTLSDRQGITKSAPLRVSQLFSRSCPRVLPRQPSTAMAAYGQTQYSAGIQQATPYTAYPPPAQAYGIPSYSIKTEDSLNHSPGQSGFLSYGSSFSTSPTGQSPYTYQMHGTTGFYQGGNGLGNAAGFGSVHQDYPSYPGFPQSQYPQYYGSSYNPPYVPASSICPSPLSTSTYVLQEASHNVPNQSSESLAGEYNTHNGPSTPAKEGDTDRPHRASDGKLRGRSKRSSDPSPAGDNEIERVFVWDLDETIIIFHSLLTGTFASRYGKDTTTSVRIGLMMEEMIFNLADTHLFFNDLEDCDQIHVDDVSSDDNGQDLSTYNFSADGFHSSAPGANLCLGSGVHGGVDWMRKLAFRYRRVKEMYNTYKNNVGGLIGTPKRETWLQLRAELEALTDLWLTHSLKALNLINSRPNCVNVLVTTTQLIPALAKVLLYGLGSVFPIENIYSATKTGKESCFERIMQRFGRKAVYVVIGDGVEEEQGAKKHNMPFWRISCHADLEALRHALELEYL
Target sequence (Q15475 whole entry, looked up): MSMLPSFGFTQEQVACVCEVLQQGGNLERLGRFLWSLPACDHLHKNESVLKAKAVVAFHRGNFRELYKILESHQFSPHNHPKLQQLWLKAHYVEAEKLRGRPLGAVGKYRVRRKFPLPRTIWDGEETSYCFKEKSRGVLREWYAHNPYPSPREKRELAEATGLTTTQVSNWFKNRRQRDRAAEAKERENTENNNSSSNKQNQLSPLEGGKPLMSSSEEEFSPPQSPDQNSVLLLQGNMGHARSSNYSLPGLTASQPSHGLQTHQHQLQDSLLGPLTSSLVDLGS
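AlphaScreen luminescence read after one hour at 37 °C in darkness. Pin-transferred compounds met GST-Six1 and His-Eya2 protein (5X stock 250 nM/500 nM) plus glutathione donor and Ni-chelate acceptor beads (5X, 50 ug/mL).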
D2 PAM: potentiates the human D2 dopamine receptor allosterically; potentiation, % (concentration not given with the values); AID 624464; 360,000 compounds, 0.23% hits; P14416; DiscoveRx D2 beta-arrestin cells, luminescence, 90 min; 100% = 57 uM dopamine signal; active = potentiation of 50% or more; inconclusive = 30% to 50%; inactive = 30% or less;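 also: tested on top of an EC20 dose of dopamine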
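D2 cells co-treated with compound plus 50 nM dopamine (EC20) for 90 min at 37 deg C to detect potentiation. Beta-arrestin recruitment was read as enzyme-fragment luminescence after 1 h at ambient temperature. Full response was set by 57 uM dopamine.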
TRPML1 blocker: blocks the human TRPML1 channel; 390,000 compounds, 0.02% hits; TRPML1-inducible cells, Ca2+ dye fluorescence, FDSS; active compounds read low; inhibition of EC80 agonist-evoked calcium signal; activity change, negative = inhibition, % (concentration not given with the values); Q9GZU1; in the data active means activity change below about -50%; inconclusive means about -30% to -50%; inactive means above about -30%;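 also: stimulus is agonist 54-4 at its EC80 concentration; % is scaled to controls: 0 for no effect and ±100 for the full control effect; the text of the record puts the active cut at -80%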
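Calcium fluorescence in TRPML1-DL cells induced overnight with Tet: a 110 s read after compound pin addition, then a 110 s antagonist read after challenge with 54-4 at 4 uM final (EC80).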
TRPML1 ag: agonists of human TRPML1 channel | TRPML1-expressing cells, Ca2+ dye fluorescence, FDSS; host cell line not named in the record; reference of the full effect not given here | activation, % (test concentration not listed) | 410,000 compounds, 0.12% hits; in the data active = activation above about 50%; inconclusive = about 30% to 50%; inactive = below about 30%; also: 0% is about no effect; the text of the record puts the active cut at 80%
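Tetracycline-induced TRPML1-DL cells are seeded and incubated overnight before loading with a no-wash Ca2+ dye and quencher. Agonist activity is taken from the 110 s fluorescence read following compound pin-transfer on an FDSS, before EC80 54-4 challenge.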
Numbers without * were called inactive; u = inconclusive; x = no result given; & = joins results of further samples.

Compound,CtBP-E1A inh,Six1-Eya2 inh,D2 PAM,TRPML1 ag,TRPV1 PAM,TRPML1 blocker
O=c1cc(-c2ccccc2)nc2nc(CCc3ccccc3)[nH]n12,-2,-4,-17,0.2,5,14
COc1ccc2c(c1)C[C@]1(C)c3ccccc3C(=O)N(Cc3ccccc3)[C@H]21,-2,-16,-8,0.4&0.2,x,24
COc1ccc(CCNC(=S)Nc2ccc(S(=O)(=O)Nc3ncccn3)cc2)cc1OC,0,0,-7,-0.1,-10,0
CCOC(=O)[C@]12CCC=C1N(Cc1ccc(Cl)cc1Cl)C(=O)[C@H](CC(=O)N1CCN(C(=O)c3ccco3)CC1)C2,2,-8,x,-0.4,x,x
O=C(NNc1cccc(Cl)n1)c1ccc(Cl)nc1,5,-1,-2,-0.6,-1,9
CCCn1c(N)c(C(=O)CSc2n[nH]c(-c3ccc(C)cc3)n2)c(=O)[nH]c1=O,3,-1,-8,0.0,0,13
Cn1cccc1C1CCCN1CC(=O)Nc1ccc(C(N)=O)cc1 (centres undefined),1,-5,0,1.4,x,-17
O=C(OCc1ccccc1C(F)(F)F)c1cc([N+](=O)[O-])ccc1N1CCOCC1,-8,-19,-12,-0.1,2,2
O=C(CSc1n[nH]c(=O)[nH]c1=O)NC1CCCCC1,5,1,11,x,26,x
CC(C)[C@H](Nc1ccc(S(=O)(=O)N2CCOCC2)cc1[N+](=O)[O-])C(=O)OCC(=O)N(C(C)C)C(C)C,1,-10,-10,0.2,-6,-21
O=C(N/N=C\c1cccc(Br)c1)c1ccccc1-n1cccc1,-15,-16,-10,2.2,7,8
COc1ccc(CC(=O)NC(C)(C)CC(C)=O)cc1OC,7,8,0,-0.7,-11,-9
Cc1noc(C)c1COc1ccc(C(=O)NCc2cccs2)cc1,-14,20,1,-0.3,x,-8
C/C(=N\OC(=O)c1ccc(F)cc1)c1sc(-c2ccccc2)nc1C,2,-4,-9,1.4,-19,27
O=C(NC1CCCCC1)n1c(=O)oc2cc(S(=O)(=O)N3CCCCC3)ccc21,8,2,-4,-0.2,u,-5
COCCOC(=O)C1=C(C)NC(=S)NC1c1cccs1 (centres undefined),-4,0,-10,-0.1,-7,3
COc1cc2c(cc1OC)C(Cc1ccc(O)cc1)N(C)CC2 (centres undefined),-4,2,-31,0.3,3,-7
CCOC(=O)c1cccc(NC(=O)CSc2nnc(-c3cccnc3)n2CC)c1,2,4,12,1.3,1,5
O=C(NN1C(=O)/C(=C\c2ccc(O)c([N+](=O)[O-])c2)SC1=S)c1ccccc1Cl,x,-10,-21,0.7,x,-24
COc1ccc(N2CCN(C(=O)c3ccc(S(=O)(=O)N4CCCC4)cc3)CC2)cc1,-11,-3,-3,-0.7,2,4
CCOC(=O)c1sc2nc(OCc3cccnc3)cc(C)c2c1N,-5,-15,x,-0.7,x,x
O=C(CCn1c(=S)oc2ccccc21)Nc1cccc(F)c1,6,17,-11,0.5,6,8
COc1ccc(/C(C)=N/NC(=O)CNC(=O)c2cccs2)cc1OC,x,1,-9,0.2,9,5
O=C1N(Cc2cccc(Cl)c2)C[C@@H]2C[C@@H](c3cccc4cccnc34)N3CCC[C@@]123,3,-1,-8,-0.9,-1,0
Cc1cc(Nc2nc3ccccc3nc2Cl)n(-c2ccccc2)n1,22,15,-5,1.7,26,9
CCc1ccccc1N(CC(=O)NCc1ccc(OC)cc1)C(=O)CCC(=O)Nc1ccccn1,3,4,0,-0.3,1,-1
C=CCOC(=O)C1=C(C)NC(=O)NC1c1cn(-c2ccccc2)nc1-c1cccs1 (centres undefined),-6,-2,5,0.0,-1,0
CCN(CC)CCN(C)c1ccc(N2C(=O)C3CC=CCC3C2=O)cc1[N+](=O)[O-] (centres undefined),8,9,-8,-0.6,10,8
CCOC(=O)CN1CC23C=CC(O2)C(C(=O)NC2CCCC2)C3C1=O (centres undefined),5,4,0,0.5,14,0
O=C(OC1CCOC1=O)C1CCN(S(=O)(=O)c2ccc(Cl)c(C(F)(F)F)c2)CC1 (centres undefined),-25,2,-14,0.4,-7,4
O=C(c1cccs1)N(Cc1cccc(Cl)c1)C1CCS(=O)(=O)C1 (centres undefined),4,0,13,-0.6,-1,10
CCC1CCc2c(sc(NC(=O)C3CC=CCC3C(=O)O)c2C#N)C1 (centres undefined),4,-11,8,0.3,29,-14
O=C(COc1ccccc1)NCC(=O)N/N=C/c1ccc(Br)cc1,8,0,-20,1.8,0,-2
S=C(NCc1ccco1)N/N=C/c1ccccc1Cl,-7,-15,9,4.8,3,8
COc1ccc(-c2cc(C(=O)N(C)Cc3ccc(OC)c(OC)c3OC)c3ccccc3n2)cc1OC,3,-2,-10,2.2,x,29
Cn1ccnc1CN1CCN(C(=O)c2cc(COc3ccc(F)c(F)c3)on2)CC1,13,-4,-18,0.8,u,22
CNC(=O)C(=O)NCC1OCCN1S(=O)(=O)c1ccc(OC)c(OC)c1 (centres undefined),-1,0,2,-0.2,2,-7
CCN=C1SC(CC(=O)Nc2sc3c(c2C#N)CCCC3)C(=O)N1CC (centres undefined),2,0,-3,-1.3,-30,45
O=C(NC1CCCCC1)c1cc(S(=O)(=O)N2CCOCC2)c(Cl)cc1Cl,0,-2,2,-0.4,29,-21
C(=C\c1ccccc1)/CN1CCN(C(c2cc3ccccc3o2)c2nnnn2C2CCCCC2)CC1 (centres undefined),-16,11,-9,0.6,x,x
CC1(C)SCC(C(=O)O)N1C=O (centres undefined),7,3,4,-0.7,5,6
Cc1cc(C)n(CCCNC(=O)COc2ccc([N+](=O)[O-])cc2)n1,x,6,-2,-0.7,x,0
COc1cc(OC)nc(NC(=O)COC(=O)C2CCCCC2)n1,4,1,1,0.4,-14,1
Cc1ccccc1NC(=O)Cc1nc(COC(=O)c2cc(Br)ccc2O)cs1,x,-1,-3,-1.4,1,-1
COc1ccc(-c2nn3c(-c4cccc(C)c4)nnc3s2)cc1OC,-19,-22,-7,0.0,x,18
CC(C)n1c(=O)[nH]c2ccccc21,2,4,-7,0.4,8,-12
Cc1nc(C(=O)NC(C)C)nn1-c1cc(Cl)cc(Cl)c1,4,-2,-2,0.3,4,8
O=C(Nc1ccccc1)C1CC(=O)N(C2CCCCC2)C1 (centres undefined),2,9,-2,-0.3,-4,1
O=C1OCc2cc(NS(=O)(=O)c3cccs3)ccc21,8,4,-7,-0.5,1,0
COC(=O)c1cc(Br)ccc1-c1ccc(/C=N/n2nnnc2N)o1,3,-1,0,2.3,-2,27

Later entries
Compound,CtBP-E1A inh,Six1-Eya2 inh,D2 PAM,TRPML1 ag,TRPV1 PAM,TRPML1 blocker
CCc1ccc(C)[n+](CC(=O)c2cccs2)c1,-3,36,-9,-0.4,-1,3
O=C(COc1ccc(S(=O)(=O)NCc2ccccc2)cc1)N1CCOCC1,-9,-2,5,0.3,u,12
CCCN1C(=O)/C(=C/c2ccc(C)s2)SC1=Nc1ccc(OC)cc1,-6,-13,-3,-0.4,-12,-3
CC(=O)Oc1ccc(N2C(=O)C3C(C2=O)C2C=CC3C23CC3)cc1[N+](=O)[O-] (centres undefined),x,-17,-13,0.5,-13,11
CSc1nsc(SC)c1C(=O)OCC(F)(F)F,21,-1,-1,2.8,7,50
CC(=O)N1CCCN(Cc2cn(-c3cccc(C)c3)nc2-c2cccc(F)c2)CC1,-15,-2,-20,1.1,-27,69
O=C1CC2(CCN(C(=O)COc3ccccc3)CC2)Oc2ccccc21,4,-2,-9,0.2,0,-11
Cc1ccccc1N(C=O)c1ccccc1C,2,1,-4,2.2,x,2
O=C(O)C1OC(C(=O)O)C(C(=O)O)C1C(=O)O (centres undefined),-22,10,-12,0.5,x,-16
CCOc1cc(C(=O)N[C@@H](C)C(=O)N2CCC3(CC2)NCCc2[nH]cnc23)cc(OCC)c1OCC,-3,-2,-5,-0.5,4,4

The list goes on; it opens with the 2 that closed the last part.
Compound,CtBP-E1A inh,Six1-Eya2 inh,D2 PAM,TRPML1 ag,TRPV1 PAM,TRPML1 blocker
O=C(O)C1OC(C(=O)O)C(C(=O)O)C1C(=O)O (centres undefined),-22,10,-12,0.5,x,-16
CCOc1cc(C(=O)N[C@@H](C)C(=O)N2CCC3(CC2)NCCc2[nH]cnc23)cc(OCC)c1OCC,-3,-2,-5,-0.5,4,4
Cc1ccc(NC(=O)CN2C(=O)CSC2=O)cc1,3,0,5,-0.1,14,0
CC1(CC(=O)O)SC(=O)NC1=O (centres undefined),-3,5,3,-0.2,x,8
C#Cc1ccc([C@@H]2C=C(C(=O)N3CCN(Cc4ccc5c(c4)OCO5)CC3)O[C@H](OCCCCO)C2)cc1,-3,-3,-3,1.0,u,2
Cc1nc2ccccc2nc(=O)c1NNc1ccc([N+](=O)[O-])cc1,7,-16,-6,1.3,14,-11
O=C(CN(Cc1ccc(Br)cc1)S(=O)(=O)c1ccccc1)NCc1cccnc1,3,4,7,0.0,-11,-17
CC(C)CNc1ncnc2c1ncn2[C@H]1CN(Cc2ccc(-c3ccccc3)cc2)C[C@@H](CO)O1,-8,-18,-2,0.4,x,x
C=C(C)c1cccc(C(C)(C)NC(=O)N2CCCC(C)C2)c1 (centres undefined),20,0,4,-0.8,-2,13
Clc1ccc(OCCOCCN2CCCCC2)c(Br)c1,-6,5,6,-0.3,-1,-7

Arranged by the number under CtBP-E1A inh (highest first): 5 of the compounds above.
SMILES	CtBP-E1A inh	Six1-Eya2 inh	D2 PAM	TRPML1 blocker
Cc1nc2ccccc2nc(=O)c1NNc1ccc([N+](=O)[O-])cc1	7	-16	-6	-11
Cc1ccc(NC(=O)CN2C(=O)CSC2=O)cc1	3	0	5	0
CC1(CC(=O)O)SC(=O)NC1=O (centres undefined)	-3	5	3	8
Clc1ccc(OCCOCCN2CCCCC2)c(Br)c1	-6	5	6	-7
CC(C)CNc1ncnc2c1ncn2[C@H]1CN(Cc2ccc(-c3ccccc3)cc2)C[C@@H](CO)O1	-8	-18	-2	x

High-throughput results from PubChem.
